# Assay outcomes from PubChem.
# DUX4 txn inh – DUX4-mediated transcription inhibition; 293T-iDUX4 ZSCAN4-Gaussia luciferase reporter, 24 h; hits give low values; activity change, negative = inhibition, % (concentration not given with the values); 0.8% of 37,000 active;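 active means -10% or lower and over 25 points stronger than a control reporter; inconclusive means -10% or lower with a smaller gap; inactive means above -10%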;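 further: 0% = median of neutral control wells and -100% = median of positive control wells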
# DUX4 txn inh difference – recorded beside DUX4 txn inh, whose call it bears; Gaussia minus Italica difference, %; measured here: selective DUX4 reporter inhibition;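 worked out from the two reporters; negative = selective loss of the DUX4 reporter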
# DUX4 txn inh control – further read-out of DUX4 txn inh, marked with its call; activity change, negative = inhibition, %; measured here: Italica tet-on control reporter;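 0 = neutral control and -100 = positive control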
# * = called active by the depositor; ? = inconclusive; . = not tested or not shown; & = joins results of further samples. Not all compounds are listed; the hit share may differ from the screen's.
smiles	DUX4 txn inh	DUX4 txn inh difference	DUX4 txn inh control
CC=Cc1ccc2n(c1=O)C[C@H]1[C@H](CO)[C@@H](C(=O)NCC3CC3)[C@@H]2N1Cc1cccnc1 (mixture of isomers)	3.0	1.8	1.2
CC(C)(O)C#Cc1ccc([C@@H]2[C@@H](CO)N3CCCCN(S(C)(=O)=O)C[C@H]23)cc1	34.8	28.1	6.7
CO[C@H]1CN(C)C(=O)c2cc(C#N)ccc2OCC[C@H]2CC[C@@H](OC)[C@@H](CN(C)C(=O)[C@H]1C)O2	2.7	1.7	1.0
O=S(=O)(c1ccccc1)N1CCCCN2[C@@H](CO)[C@H](c3ccc(-c4ccccc4)cc3)[C@@H]2C1	0.2	-1.2	1.4
O=C(C1CC1)N1CC[C@@H]2[C@H](CO)Nc3ccc(Br)cc3[C@@H]21	?	.	.
CNC[C@H]1OCCCC[C@@H](C)Oc2ccc(NC(=O)Cc3ccccc3)cc2C(=O)N([C@H](C)CO)C[C@H]1C	5.6	-0.2	5.7
CN1C(=O)c2cc(NC(=O)c3cscn3)ccc2OC[C@@H]2O[C@H](CC(=O)N3CCOCC3)CC[C@@H]21	-0.9	-1.2	0.3
COCC(=O)N1[C@H](C#N)[C@@H](c2ccc(C#Cc3ccccc3F)cc2)[C@H]1CO	-3.8	-3.8	0.1
CNC(=O)C[C@H]1CC[C@H]2[C@@H](COc3ccc(NC(=O)Nc4ccc(C#N)cc4)cc3C(=O)N2C)O1	-0.1	-1.8	1.7
C[C@H](CO)N1C[C@H](C)[C@H](CN(C)C(=O)Nc2ccccc2)OCc2cn(nn2)CCCC1=O	-4.2	-4.2	0.0
CC(C)(C)[S@@](=O)N1Cc2cc(C(=O)N3CCOCC3)nc(-c3cccc(C4=CCCC4)c3)c2[C@H]1CCO	7.4	5.7	1.6
COc1ccc2c3c([nH]c2c1)[C@@H](CO)N(Cc1nccs1)CC31CCN(Cc2cccnc2)CC1	-4.4	-8.1	3.6
C[C@@H]1CCCCO[C@H](CN(C)C(=O)NC2CCCCC2)[C@H](C)CN([C@H](C)CO)C(=O)c2cc(NC(=O)CCC(F)(F)F)ccc2O1	0.8	0.6	0.3
COc1ccccc1NC(=O)N1CCCCN2[C@H](CO)[C@H](c3ccc(-c4cccc(F)c4)cc3)[C@@H]2C1	?	.	.
C[C@@H]1CN([C@@H](C)CO)C(=O)c2cccc(N(C)C)c2O[C@@H]1CN(C)S(=O)(=O)c1cccs1	0.3	-0.1	0.3
COCC(=O)N1[C@H](CO)[C@H]2c3ccccc3N(C(=O)Nc3ccccc3Cl)C[C@H]21	4.5	3.8	0.7
C[C@H]1CN([C@@H](C)CO)C(=O)c2c(c3ccccc3n2C)-c2ccccc2CO[C@@H]1CN(C)Cc1ccc(C(=O)O)cc1	16.3	19.9	-3.7
CN1[C@H](CO)[C@@H]2c3ccccc3N(C(=O)C3CCCCC3)C[C@@H]21	-1.1	-1.4	0.3
C[C@@H]1CN([C@@H](C)CO)C(=O)c2cc(NS(=O)(=O)c3ccc(F)cc3)ccc2O[C@@H](C)CCCCO[C@@H]1CN(C)Cc1ccc(C(=O)O)cc1	-1.5	-1.1	-0.5
O=C(Nc1ccc2c(c1)[C@H]1C[C@H](CC(=O)N3CCCCC3)O[C@H](CO)[C@H]1O2)C1CCOCC1	6.1	5.1	1.0
CC=Cc1ccc2n(c1=O)C[C@@H]1[C@@H](CO)[C@H](C(=O)OC)N(Cc3ccccc3)[C@H]21 (mixture of isomers)	-2.3	7.0	-9.3
COc1cccc(-c2ccc([C@H]3[C@H]4CN(Cc5cncnc5)CCCCN4[C@H]3CO)cc2)c1	8.2	-7.7	15.9
O=C(C[C@@H]1C=C[C@@H](NS(=O)(=O)c2ccc(F)cc2)[C@@H](CO)O1)N1CCc2ccccc2C1	-0.5	-2.6	2.0
COc1cccc(-c2ccc(C3[C@H]4CNC[C@@H]3N4Cc3ccccc3F)cc2)c1 (stereo not given in full)	7.1&11.1	11.1&21.1	-4.0&-10.0
O=C(C[C@H]1CC[C@H]2[C@@H](COC[C@H](O)CN2C(=O)c2ccncc2)O1)NCc1cccc(F)c1	1.3	2.1	-0.8
O=C(C[C@@H]1CC[C@@H](NC(=O)CN2CCOCC2)[C@H](CO)O1)NCCc1ccncc1	-1.1	-1.1	0.0
C/C=C/c1ccccc1[C@@H]1[C@H](C#N)N(S(=O)(=O)c2cccc(F)c2)[C@H]1CO	2.5	0.4	2.1
O=C(CN1CCOCC1)NCC[C@H]1CC[C@H](NS(=O)(=O)c2ccc(Cl)cc2)[C@@H](CO)O1	-1.5	-0.4	-1.1
C[C@@H]1CN([C@@H](C)CO)C(=O)c2cc(NC(=O)NC3CCCCC3)ccc2O[C@@H](C)CCCCO[C@@H]1CN(C)Cc1ccc(C(=O)O)cc1	8.6	5.0	3.6

# Entries above with four or more nitrogen atoms (nine):
smiles	DUX4 txn inh	DUX4 txn inh difference	DUX4 txn inh control
CC=Cc1ccc2n(c1=O)C[C@H]1[C@H](CO)[C@@H](C(=O)NCC3CC3)[C@@H]2N1Cc1cccnc1 (mixture of isomers)	3.0	1.8	1.2
CN1C(=O)c2cc(NC(=O)c3cscn3)ccc2OC[C@@H]2O[C@H](CC(=O)N3CCOCC3)CC[C@@H]21	-0.9	-1.2	0.3
CNC(=O)C[C@H]1CC[C@H]2[C@@H](COc3ccc(NC(=O)Nc4ccc(C#N)cc4)cc3C(=O)N2C)O1	-0.1	-1.8	1.7
C[C@H](CO)N1C[C@H](C)[C@H](CN(C)C(=O)Nc2ccccc2)OCc2cn(nn2)CCCC1=O	-4.2	-4.2	0.0
COc1ccc2c3c([nH]c2c1)[C@@H](CO)N(Cc1nccs1)CC31CCN(Cc2cccnc2)CC1	-4.4	-8.1	3.6
C[C@@H]1CCCCO[C@H](CN(C)C(=O)NC2CCCCC2)[C@H](C)CN([C@H](C)CO)C(=O)c2cc(NC(=O)CCC(F)(F)F)ccc2O1	0.8	0.6	0.3
COc1cccc(-c2ccc([C@H]3[C@H]4CN(Cc5cncnc5)CCCCN4[C@H]3CO)cc2)c1	8.2	-7.7	15.9
O=C(C[C@@H]1CC[C@@H](NC(=O)CN2CCOCC2)[C@H](CO)O1)NCCc1ccncc1	-1.1	-1.1	0.0
C[C@@H]1CN([C@@H](C)CO)C(=O)c2cc(NC(=O)NC3CCCCC3)ccc2O[C@@H](C)CCCCO[C@@H]1CN(C)Cc1ccc(C(=O)O)cc1	8.6	5.0	3.6
